Screening data deposited in PubChem BioAssay by Southern Research Institute.
Mtb H37Rv: Mycobacterium tuberculosis H37Rv growth inhibition, cell based, confirmatory dose response (AID 1949); most inactive calls were filed without a number and no value below 0 was filed; inhibition, % at 10 µg/mL, or IC50 in µg/mL where a hit was titrated; actives 1.6% (n = 100,000);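 active = confirmed in a dose series; inconclusive = about 50% or more but not retested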;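 note: bacteria grown 7 days with compound before Alamar blue readout; 0% = untreated bacteria and 100% = reference antibiotic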
An asterisk follows results filed as active; i = inactive; ? = inconclusive. An excerpt, so the mix of outcomes need not match the whole.

structure	Mtb H37Rv
O=C(NCC1CCCO1)C1CCN(C(=O)c2ccc(Br)cc2)CC1 (stereo not given)	i
O=C(C1CCN(S(=O)(=O)c2ccc(Br)cc2)CC1)N1CCCC1	7%
COc1ccc(Cl)cc1NC(=O)CSCc1c(Cl)cccc1Cl	9%
CC(C)C(=O)N1CCN(c2ccc(NC(=O)c3ccc(-c4ccccc4)cc3)cc2Cl)CC1	7%
Fc1cc(NC(=S)NC2CC2)ccc1Cl	i
CCC(=O)Nc1ccc(-c2nnc(SCC(=O)NCc3ccc(C)cc3)n2C)cc1	i
CC(C)(C)Cc1nnc(NC(=O)c2cccs2)s1	i
COc1ccc(N2CCN(C(=O)C(C)Oc3cc(C)c(Cl)c(C)c3)CC2)cc1 (stereo not given)	i
COc1ccc(Cl)cc1N(CC(N)=O)S(=O)(=O)c1ccccc1	i
O=C(NCCC12CC3CC(CC(C3)C1)C2)c1ccccc1	i

Among those listed so far, 7 have a carbonyl joined to an NH by a bond outside any ring:
structure	Mtb H37Rv
O=C(NCC1CCCO1)C1CCN(C(=O)c2ccc(Br)cc2)CC1 (stereo not given)	i
COc1ccc(Cl)cc1NC(=O)CSCc1c(Cl)cccc1Cl	9%
CC(C)C(=O)N1CCN(c2ccc(NC(=O)c3ccc(-c4ccccc4)cc3)cc2Cl)CC1	7%
CCC(=O)Nc1ccc(-c2nnc(SCC(=O)NCc3ccc(C)cc3)n2C)cc1	i
CC(C)(C)Cc1nnc(NC(=O)c2cccs2)s1	i
COc1ccc(Cl)cc1N(CC(N)=O)S(=O)(=O)c1ccccc1	i
O=C(NCCC12CC3CC(CC(C3)C1)C2)c1ccccc1	i

(more compounds)
structure	Mtb H37Rv
COC(=O)Nc1ccc(S(=O)(=O)N2CCCCCC2)cc1	i
CSc1nsc(SCC(=O)Nc2cccc(C(F)(F)F)c2)n1	32%
Cc1cc(C)c(C)c(OCC(=O)Nc2ccc(C(N)=O)cc2)c1	i
COc1ccc(-c2csc(NC(=S)NC(=O)c3cccc4ccccc34)n2)cc1	i
N#Cc1ccc(NC(=O)CSc2nnnn2-c2ccccc2)cc1	i
c1ccc(Nc2nc(Nc3ccccc3)nc(N3CCNCC3)n2)cc1	4µg/mL*
OC(COc1ccc(-c2ccccc2)cc1)CN1CCOCC1 (stereo not given)	23%
CN(C(=O)c1cc2ccccc2oc1=O)C1CCCCC1	i
CC(=O)COc1cc(C)cc2oc(=O)cc(-c3ccccc3)c12	i
Cc1ccc(C)c(N(CC(=O)N2CCCCCC2)S(C)(=O)=O)c1	i
COc1ccc2[nH]cc(CCNC(=O)C3CC(=O)N(c4ccc(C)cc4)C3)c2c1 (stereo not given)	i
Cc1ccc(C)c(-c2csc(NC(=O)CCCc3ccccc3)c2C(N)=O)c1	i
CC(C)c1ccc(CNC(=O)c2nc3ccccc3[nH]2)cc1	21%
Cn1c(SCC(=O)Nc2ccc(F)cc2)nnc1-c1ccccc1Cl	i
O=C(c1cc2ccccc2o1)N1CCCC(c2ccccc2)C1 (stereo not given)	6%
CCOC(=O)c1ccc(NC(=O)NCCN2CCCCC2)cc1	i
CCOc1ccc(-n2cnnn2)cc1S(=O)(=O)NCc1ccccc1	i
Cc1cc(I)ccc1NC(=O)c1ccc(-c2ccc(Cl)cc2)o1	i
Cc1nn(C)c(C(=O)NNC(=O)Nc2cccc(C(F)(F)F)c2)c1Cl	i
CCc1nc(C)cn1S(=O)(=O)c1ccc(Br)cc1	i
CCC(C)c1ccccc1OCC(=O)Nc1ccccc1C(N)=O (stereo not given)	21%
Cc1cc(Oc2coc3cc(OCC(=O)Nc4ccccc4)ccc3c2=O)cc(C)c1Cl	i
O=C(CSCc1ccccc1)Nc1ccc(C(=O)O)cc1NC(=O)CSCc1ccccc1	i
CCOC(=O)C1=CN(C(C)C)C=C(C(=O)OCC)C1c1ccc([N+](=O)[O-])cc1	i
COCCn1c(SCC(=O)N2CCOCC2)nnc1-c1ccccc1	i
CCCOc1ccc(C(=O)Nc2ccc(CN3CCCCC3)cc2)cc1	1%
O=C(OCc1ccccc1)c1c(F)c(F)c(F)c(F)c1F	i
CNC(=S)NNC(=O)c1ccccc1Br	i
COc1ccc(/C=N/NC(=O)CCNc2n[nH]c(=O)[nH]c2=O)cc1	0%
NC(=O)c1ccccc1NC(=O)CN(c1ccccc1)S(=O)(=O)c1ccccc1[N+](=O)[O-]	6%
CC1CN(C(=O)c2ccc(Br)cc2)CC(C)O1 (stereo not given)	i
O=[N+]([O-])c1ccc(N2CCNCC2)cc1Sc1nc2ccccc2[nH]1	i
CCOc1ccc(C(O)(C(=O)NCCCCOc2ccc(C)cc2)c2ccc(OCC)cc2)cc1	6%
CCC(CC)c1nnc(NS(=O)(=O)c2ccc(C)cc2)s1	i
Cc1cc(NS(=O)(=O)c2ccc(NC(=O)CCCOc3ccc(Cl)cc3C)cc2)no1	i
COc1ccc(CCNC(=O)C2CCN(S(=O)(=O)c3ccc(C)cc3)CC2)cc1OC	i
CNC(=O)c1ccc(OCc2ccccc2)c(OC)c1	i
CCOC(=O)Cn1cc(C)c(=O)[nH]c1=O	i
CCC(=O)NC(=S)Nc1cccc(F)c1	3%
CC1=C(C(=O)Nc2cccnc2)C(c2cccnc2)C2=C(CC(C)(C)CC2=O)N1 (stereo not given)	i
Cn1c(=O)c2c(ncn2Cc2cccc(I)c2)n(C)c1=O	1%
CCn1cc(CNC(=O)c2cc(-c3ccccc3)nc3ccccc23)cn1	i
COC(=O)C1=CN(C2CC2)C=C(C(=O)OC)C1c1ccc(Cl)c(Cl)c1	i
Brc1cccc(OCCCn2ccnc2)c1	i
O=C(CSc1nc2ccccc2c(=O)n1-c1ccccc1)Nc1ccc(N2CCOCC2)cc1	i
CS(=O)(=O)N(CC(=O)NC1CCCC1)c1ccc(Cl)c(C(F)(F)F)c1	i
Cc1cc(CNC(=O)Nc2ccc(Br)cc2Cl)nn1C	12%
CCc1cc(OCCOCCN(C)C)ccc1Cl	i
c1ccc2c(c1)OCC(c1nnc3sc(-c4ccncc4)nn13)O2 (stereo not given)	i
CC1Cc2ccccc2N1C(=O)CSc1nnc2sc3ccccc3n12 (stereo not given)	1%

Further results follow:
structure	Mtb H37Rv
CCOc1cccc(OCCCNCCN)c1	10%
COc1cccc(C2C3=C(CC(c4ccc(Cl)cc4)CC3=O)Nc3ccccc3N2C(C)=O)c1 (stereo not given)	6%
COc1ccc(S(=O)(=O)NCc2ccc(Br)cc2)cc1	2%
CCOc1ccc(NC(=O)CSc2nc(-c3cccs3)cc(C(F)(F)F)c2C#N)cc1	i
CCc1ccccc1NC(=O)CN(Cc1ccc(C)cc1)S(=O)(=O)c1ccc(Cl)cc1	i
O=[N+]([O-])c1ccc(NCCNc2nc3ccccc3nc2N2CCOCC2)cc1	1.6µg/mL*
CC(=O)Nc1ccc(OC(=O)c2cc3cc(Br)ccc3oc2=O)cc1	i
C/C(=N\N=C1\NC(=O)C(CC(=O)Nc2ccccc2)S1)c1ccco1 (stereo not given)	i
COCc1nnc(NC(=O)CCC2CCCCC2)s1	i
COc1ccccc1OCCCC(=O)Nc1ccc2c(c1)OCCO2	i
CCOc1cccc2cc(C(=O)NCc3cccs3)c(=O)oc12	i
O=C(Nc1ccc(N2CCOCC2)cc1)c1ccc2nc(N3C(=O)c4ccccc4C3=O)sc2c1	i
Cc1nn(CC(O)CN2C(=O)C3CCC(C)(C2=O)C3(C)C)c(C)c1Br (stereo not given)	i
COCCSc1nnc(NC(=O)C2CCCO2)s1 (stereo not given)	i
COc1ccc(S(=O)(=O)N(C)CC(=O)Nc2ccccc2OC)cc1	i
c1coc(-c2nnc(C3CCCCC3)o2)c1	3%
N#C/C(=C/C=C/c1ccc(-c2cc(Cl)ccc2Cl)o1)C(N)=S	i
COc1cccc(CC2CC(=O)N(c3ccc4c(C)cc(=O)oc4c3)C2=O)c1 (stereo not given)	0%
COc1ccc(NC(=O)COc2ccc(C)c(C)c2)c(OC)c1	?
O=C(Nc1ccc(S(=O)(=O)N2CCCCCC2)cc1)c1ccc(Cl)cc1	18%

As a working copy, some entries already given:
structure	Mtb H37Rv
N#C/C(=C/C=C/c1ccc(-c2cc(Cl)ccc2Cl)o1)C(N)=S	i
COc1cccc(CC2CC(=O)N(c3ccc4c(C)cc(=O)oc4c3)C2=O)c1 (stereo not given)	0%
COc1ccc(NC(=O)COc2ccc(C)c(C)c2)c(OC)c1	?
O=C(Nc1ccc(S(=O)(=O)N2CCCCCC2)cc1)c1ccc(Cl)cc1	18%

Remaining list, next part:
structure	Mtb H37Rv
Cc1ccc(C(=O)Nc2cccc3cccnc23)cc1Br	i
O=S(=O)(NCCc1ccc(Cl)cc1)c1ccccc1	i
Cc1ccc(NCc2nc3ccccc3n2Cc2ccccc2)cc1C	2%
CCNC(=S)NS(=O)(=O)c1ccc(Br)cc1	i
CCOc1ccc(N(CC(=O)N2CCCCCC2)S(=O)(=O)c2ccc(Cl)cc2)cc1	i
Cc1cc(C)n(C(=O)c2ccc(COc3c(F)c(F)cc(F)c3F)o2)n1	0%
Cc1sc(NC(=O)c2ccccc2)c(C(=O)NC2CCCCC2)c1C	1%
Cc1c(C=O)c2ccccc2n1Cc1ccc(F)cc1	i
COc1ccc(C)cc1NC(=O)CSc1nnc(-c2ccccc2)n1C	i
CCOC(=O)c1sc(NC(=O)COc2ccccc2)nc1C	i
Cc1cc(OCC(=O)C(C)(C)C)c2c3c(c(=O)oc2c1)CCC3	i
O=C(CN1CCN(Cc2ccc3c(c2)OCO3)CC1)N1N=CCC1c1ccccc1 (stereo not given)	i
CCOC(=O)C(Cc1ccc(Br)cc1)Sc1nc2ccccc2[nH]1 (stereo not given)	i
Cc1nc(-c2ccc(NC(=O)c3ccc(Cl)cc3Cl)cc2)cs1	i
CCOC(=O)C(C)C(O)C(=O)OCC (stereo not given)	3%
O=C1CC(c2ccc([N+](=O)[O-])cc2)c2cc3c(cc2N1)CCC3 (stereo not given)	7%
O=C(Nc1cc(C(F)(F)F)ccc1Cl)C1CCCC1	i
COc1ccc(OC)c(C2C(C(=O)Nc3ccccc3OC)=C(C)Nc3ncnn32)c1 (stereo not given)	1%
CC(C(=O)N(C)Cc1ccccc1)N(c1ccc(Oc2ccccc2)cc1)S(C)(=O)=O (stereo not given)	i
O=[N+]([O-])c1ccc(N2CCN(S(=O)(=O)Cc3ccccc3)CC2)cc1NCc1cccnc1	4%
CCc1ccc(OCC(=O)Nc2ccc3oc(-c4ccc(OC)cc4)nc3c2)cc1	i
O=C(CON1C(=O)c2ccccc2C1=O)c1ccc(O)cc1O	i
C=C1C2(C(=O)NCc3ccco3)CCC(C2)C1(C)C (stereo not given)	i
COc1ccccc1NC(=O)COc1c(I)cc(C=O)cc1OC	5%
COc1cc2c(cc1OC)C(c1cc(Cl)ccc1OC)CC(=O)N2 (stereo not given)	i
Cc1ccc(Cl)cc1N1C(=O)CC(N2CCC(C(N)=O)CC2)C1=O (stereo not given)	i
O=C(Nc1ccccc1C(=O)N1CCCCC1)c1ccc(F)cc1	i
CC(C)(C)c1ccc(OCc2ccc(C(=O)NCc3ccccc3)o2)cc1	2%
COc1ccc(N(CC(=O)Nc2cccc(Cl)c2)S(=O)(=O)c2ccc(C)c([N+](=O)[O-])c2)cc1	i
COc1ccccc1N(CC(O)COc1ccccc1Cl)S(=O)(=O)c1ccccc1 (stereo not given)	6%
CCC(=O)N/C(=N/c1nc(C)cc(C)n1)Nc1ccc(OC)cc1	i
Cc1ccc(S(=O)(=O)CC(CN2CCOCC2)N2CCOCC2)cc1 (stereo not given)	i
Oc1cccc(Nc2ncnc3ccccc23)c1	i
CCOC(=O)c1c(NC(=O)C(C)Oc2ccccc2)sc(C)c1C (stereo not given)	2%
Cn1c(=O)c2ccccc2n(CC(=O)Nc2ccccc2[N+](=O)[O-])c1=O	i
O=C(COc1ccc(S(=O)(=O)NC2CCCCC2)cc1)N(Cc1ccccc1)Cc1ccccc1	5%
COc1ccc(-c2noc(CN(C(=O)c3cc(OC)c(OC)cc3OC)C(C)C)n2)cc1	i
Cn1c(=O)c2[nH]c(CNCc3ccccc3Cl)nc2n(C)c1=O	i
CC(=O)Nc1cccc(-c2csc(Nc3cccnc3)n2)c1	i
COCCCNS(=O)(=O)c1ccc(OC)c(Cl)c1Cl	i
O=c1oc2cc(OCc3ccccc3F)ccc2c2c1CCC2	i
O=C(Nc1ccc(Cl)cc1-c1nc2ccccc2s1)c1ccc(Br)o1	i
O=C(CSc1nc2scc(-c3ccc(F)cc3)c2c(=O)n1-c1ccccc1)NCC1CCCO1 (stereo not given)	i
CCCc1ccc(OCc2ccc(C(=O)N3CCSCC3)o2)cc1	?
O=C(NCc1ccc(F)cc1)C(=O)Nc1cccc(Cl)c1	i
O=C1CCC(=O)N1c1ccc(S(=O)(=O)N2CCCC2)cc1	i
C=CCNC(=O)NC(=S)c1ccccc1	2%
COc1cccc(NC(=O)CN(c2ccc(Cl)cc2C)S(C)(=O)=O)c1	1%
CCC(C)c1ccccc1NC(=O)CSc1ccc(Cl)cc1 (stereo not given)	22%
CCOc1cc(C(=O)NCCCCc2ccccc2)cc(OCC)c1OCC	3%

Next section
structure	Mtb H37Rv
O=C(COc1ccc2ccccc2c1)NCCN1CCOCC1	i
COc1ccc(NC(=O)C2=C(C)Nc3ncnn3C2c2ccccc2Cl)cc1 (stereo not given)	i
CC(=O)NCCCc1nc2ccccc2n1Cc1ccc(C)cc1	i
CCn1c(CSCc2ccc(Cl)cc2)nnc1SCC(=O)c1ccc(Br)cc1	i
CCn1c(SCC(=O)N2CCN(c3ccccc3)CC2)nnc1C(C)NC(=O)c1ccccc1Br (stereo not given)	2%
